# High-throughput results deposited in PubChem by National Center for Advancing Translational Sciences (NCATS).
# CtBP-E1A blk = blocks the CtBP interaction with E1A | activity change, % (concentration not given with the values) | AlphaScreen GST-E1A/His-CtBP binding, 1536-well; stronger effect = lower value; control for the full effect not named in the record | AID 651724 | 340,000 tested, 0.49% active; in the data active means activity change below about -65%; inconclusive means about -30% to -65%; inactive means above about -30%; also: % is scaled to controls: 0 for no effect and ±100 for the full control effect
#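 AlphaScreen with 125 nM GST-E1A and 125 nM His-CtBP (5X stocks) in Tris pH 8.0, 300 mM NaCl, BSA, Tween 20, TCEP. Compounds preincubated 2 h at 37 deg C, then glutathione donor/nickel acceptor beads added for 1 h at 37 deg C in dark.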
# Six1-Eya2 blk = inhibitors of human Six1/Eya2 interaction | Q15475+O00167 | activity change, % (concentration not given with the values) | AlphaScreen GST-Six1/His-Eya2 binding, biochemical; stronger effect = lower value; control for the full effect not named in the record | AID 651725 | 360,000 tested, 0.56% active; in the data active = activity change below about -65%; inconclusive = about -30% to -65%; inactive = above about -30%; also: % is scaled to controls: 0 for no effect and ±100 for the full control effect
# Target sequence (O00167 whole entry, looked up): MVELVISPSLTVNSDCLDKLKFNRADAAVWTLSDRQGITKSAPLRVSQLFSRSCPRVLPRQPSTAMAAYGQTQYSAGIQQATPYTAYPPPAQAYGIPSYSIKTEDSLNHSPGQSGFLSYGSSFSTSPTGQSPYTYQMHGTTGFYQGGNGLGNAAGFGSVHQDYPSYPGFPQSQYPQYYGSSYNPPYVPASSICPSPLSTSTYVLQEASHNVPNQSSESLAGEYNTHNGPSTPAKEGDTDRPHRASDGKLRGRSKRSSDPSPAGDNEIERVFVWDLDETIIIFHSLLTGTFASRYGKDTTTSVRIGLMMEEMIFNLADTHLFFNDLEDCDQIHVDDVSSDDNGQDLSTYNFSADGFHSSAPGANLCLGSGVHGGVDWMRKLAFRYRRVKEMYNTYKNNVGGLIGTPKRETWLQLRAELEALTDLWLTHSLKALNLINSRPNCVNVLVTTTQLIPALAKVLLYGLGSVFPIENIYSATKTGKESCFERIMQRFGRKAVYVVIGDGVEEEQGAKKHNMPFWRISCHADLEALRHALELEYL
# Target sequence (Q15475 whole entry, looked up): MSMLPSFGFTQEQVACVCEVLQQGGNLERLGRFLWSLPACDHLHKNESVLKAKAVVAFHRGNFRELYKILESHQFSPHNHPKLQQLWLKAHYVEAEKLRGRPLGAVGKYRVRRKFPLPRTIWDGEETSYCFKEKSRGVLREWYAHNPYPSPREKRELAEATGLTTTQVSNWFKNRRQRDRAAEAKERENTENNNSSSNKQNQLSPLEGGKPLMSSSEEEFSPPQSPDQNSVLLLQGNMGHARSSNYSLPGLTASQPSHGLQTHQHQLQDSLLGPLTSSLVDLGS
#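 AlphaScreen with GST-Six1 and His-Eya2 (5X mix: 250 nM and 500 nM), glutathione donor and nickel acceptor beads; buffer 50 mM Tris pH 8.0, 300 mM NaCl, 1 mM TCEP; 1 h at 37 C in the dark.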
# gsp antag = antagonizes gsp, the McCune-Albright syndrome mutation; gsp-mutant cells, cAMP HTRF, 30 min; control for the full effect not named in the record; Potency, µM (doses to about 76.9 µM), for the others: at the top dose activity change, negative = inhibition, hits mostly inhibitors; 340,000 tested, 0.4% active; AID 624288; active = falling curve of any shape with a large fitted effect; inconclusive = falling curve, mostly with a smaller effect; inactive = flat or rising curve; cell line not stated here;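 also: intracellular cAMP measured with PDE inhibitor Ro 20-1724 present during compound exposure; potency is read from the fitted curve at half-maximal effect; % is scaled to controls: 0 for no effect and ±100 for the full control effect; nearly all actives have a fitted effect of over 65% in size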
#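 Cells in G418 medium, seeded 16-24 h, 37C; buffer exchange to DPBS + 1 mM CaCl2, 0.5 mM MgCl2, 0.05% BSA; cpds in DMSO + […] (300 uM stock), 30 min 37C; HTRF cAMP detection.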
# D2 agonist = agonists of human D2 dopamine receptor (beta-arrestin) | P14416 | DiscoveRx PathHunter D2 beta-arrestin, luminescence, 90 min; 100% = 57 uM dopamine signal | activation, % (test concentration not listed) | 360,000 tested, 0.084% active | AID 624465; in the data active = activation above about 40%; inconclusive = about 15% to 40%; inactive = below about 15%; also: compound concentration not given in the record; the text of the record calls up to 30% inactive
#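 DiscoveRx PathHunter D2 beta-arrestin cells (2,100/well) attached overnight, then compound-stimulated 90 min at 37 C in HBSS/10 mM HEPES/0.1% Tween-20 buffer; beta-galactosidase complementation read by luminescence after 1 h at ambient temperature. Dopamine 57 uM final (EC100) as control.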
# gsp agonist = agonists of gsp mutant (McCune-Albright syndrome). gsp mutant cells, cAMP HTRF, 30 min; control for the full effect not named in the record. Potency, µM (series often up to 76.9 µM), for the others: at the highest dose activation (cAMP increase), actives largely listed as activators. 340,000 tested, 0.13% active; active = well fitted activation curve with a large enough effect; inconclusive = small, poorly fitted or top-dose-only effect, or another doubt; inactive = no such curve, though single readings can be large or run the other way; cell line not stated here;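 also: phosphodiesterase inhibitor Ro 20-1724 added with compounds to block cAMP breakdown; potency is read from the fitted curve at half-maximal effect; nearly all actives have a fitted effect of over 60% in size; about a fifth of the inactives were tested at one dose only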
#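 Cells in DMEM/10% FBS with G418 were pretreated with compounds in DMSO plus […] (300 uM stock) for 30 min at 37C. cAMP was measured by HTRF (cAMP-d2 plus anti-cAMP antibody-K) after 30 min at room temperature.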
# D2 PAM = potentiates the human D2 dopamine receptor allosterically. P14416. DiscoveRx D2 beta-arrestin cells, luminescence, 90 min; 100% = 57 uM dopamine signal. potentiation, % (concentration not given with the values). 360,000 tested, 0.23% active. AID 624464; active = potentiation of 50% or more; inconclusive = 30% to 50%; inactive = 30% or less;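 also: compound concentration not given in the record; tested on top of an EC20 dose of dopamine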
#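 D2 cells co-treated with compound plus 50 nM dopamine (EC20) for 90 min at 37 deg C to detect potentiation. Beta-arrestin recruitment was read as enzyme-fragment luminescence after 1 h at ambient temperature. Full response was set by 57 uM dopamine.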
# Starred values were filed as active, the others as inactive; ? = inconclusive; nt = not tested or not shown; [ ] = dose if it differs, or a comment.
SMILES,CtBP-E1A blk,Six1-Eya2 blk,gsp antag,D2 agonist,gsp agonist,D2 PAM
Cc1ccc(-c2cc(C(=O)NCc3ccco3)c3ccccc3n2)s1,1,1,-8%,-3.6,20%,-10
Cc1cccc(-n2nc3c(c2NC(=O)c2ccc(Br)o2)CSC3)c1C,2,-11,-6%,-0.2,-14%,-10
O=C(COc1ccc(F)cc1)Nc1nnc(C2CC2)s1,-14,8,7%,-0.5,-3%[15.4 µM],-67
O=C(Cn1cnc2ccccc2c1=O)NCCCN1CCCC1=O,nt,2,3%,-3.0,5%,-6
C#CCn1cc(/C=N/NC(=O)c2cc3ccccc3o2)c2ccccc21,-5,-1,-28%,0.9,-9%,-20
CCCc1nc2c(nnn2Cc2ccccc2)c(=O)[nH]1,-2,-1,5%,-2.9,16%,-19
COc1ccccc1C(=O)c1ccccc1C(=O)c1ccccc1,0,4,-7%,-1.0,-1%,0
CC(=O)Nc1cccc(NC(=O)C2CCCO2)c1 (stereo not drawn),-2,-4,nt,-2.2,-31%[inhibitor],-5
COc1ccc(C(CNC(=O)c2cccc(NS(=O)(=O)c3ccc(C)c(F)c3)c2)N2CCCC2)cc1 (stereo not drawn),-4,-6,6%,-3.6,-14%[15.4 µM],-33
COc1ccc(NC(=O)NC2CCCCCCC2)cc1OC,-13,0,6%,-1.1,12%,-12
CCC(=O)Nc1ccc(S(=O)(=O)Nc2c(C)nc3nc[nH]n3c2=O)cc1,18,0,-4%,-8.9,23%[15.4 µM],-6
O=C(c1cc(-c2ccccc2)nc2ccccc12)N1N=C(C(F)F)CC1(O)C(F)F (stereo not drawn),-9,-2,-7%,2.1,-3%,-6
OC[C@@H]1CN(Cc2ccc(-c3ccccc3)cc2)C[C@H](n2cnc3c(NC4CCCC4)ncnc32)O1,-11,-15,nt,5.1,nt,0
O=C(N/N=C/c1ccc2c(c1)OCO2)c1ccc(NC(=O)c2ccccc2Cl)cc1,-13,-24,-23%,-3.5,8%[15.4 µM],-1
O=C1N(c2ccccc2)C(c2ccccc2)C12CCCCC2 (stereo not drawn),8,9,-10%,1.7,nt,nt
ONC(=Nc1ccccc1)C(=Nc1ccccc1)NO,14,12,15%,1.9,-5%,5
COc1ccc(C2SCC(=O)N2c2c(C)n(C)n(-c3ccccc3)c2=O)c(OC)c1 (stereo not drawn),8,4,5%,-3.8,8%,3
N/C(Cc1cccs1)=N\OC(=O)COc1ccc(Cl)cc1Cl,73,173,6%[15.4 µM],-1.9,?,-7
Cc1cccc(NC(=O)C2CCN(S(=O)(=O)c3c(C)c(C)cc(C)c3C)CC2)n1,1,-24,-7%,-3.6,34%,0
CCN1C(=O)[C@H]2[C@@H](c3ccc(-c4ccccc4)cc3)N[C@@](CC(C)C)(C(=O)OC)[C@H]2C1=O,1,-1,-8%,-2.9,-9%,-4
O=C(Nc1ccccc1N1CCOCC1)c1cccs1,-1,-1,-8%,-1.0,-34%[inhibitor],4
Cc1ccc(-c2nn(-c3ccccc3)cc2CC(=S)N2CCOCC2)cc1,nt,-9,-26%,-1.3,-7%,-1
O=C(Cn1cc2c(n1)CCCC2)NCCCN1CCCC1,5,1,6%,3.2,-18%,-2
Cc1cc(C)c(S(=O)(=O)N2CCCCC2)c(C)c1N(C)S(=O)(=O)c1ccccc1,10,-1,-2%,0.5,-6%,2
COc1ccccc1NC(=O)CSc1nnc(-c2ccco2)n1Cc1ccco1,-6,-12,-18%,-1.7,0%,-9
O=C1Nc2ccccc2N=C(c2ccc3c(c2)OCO3)C1N(CCc1ccccc1)C(=O)CSc1ncccn1 (stereo not drawn),-14,-15,nt,-1.7,nt,-10
CC(=O)c1c(O)ccc2c(-c3ccccc3)cc(=O)oc12,11,8,6%,2.6,-25%,-7
Cc1ccc(C(=O)COC(=O)CNC(=O)Cc2ccccc2)cc1,3,0,14%,-2.0,-32%[inhibitor],3
CS(=O)(=O)N1CCN(C(=O)CSc2ccccc2)CC1,0,5,-25%,-1.7,-14%[15.4 µM],-4
COC(=O)c1cc(S(=O)(=O)NCC2CCN(Cc3ccc(C)cc3)CC2)cn1C,nt,-2,2%,0.1,1%,-16
COC(=O)c1cc(OC)c(OC)cc1NC(=O)c1ccc(Br)o1,-15,-12,-8%,0.4,6%,-2
Cc1ccc(-c2cc(C(=O)NCCCn3ccnc3)c3ccccc3n2)s1,-14,-11,-16%,-0.7,1%,-22
COc1ccc(NC(=O)c2ccccc2SC)cc1,7,-1,3%,5.8,?,3
O=C(NC(=S)Nc1ccc(CN2CCOCC2)cc1)c1cccc(F)c1,-18,-17,-16%,-5.0,-28%,-35
Cc1ccc(Cl)cc1NC(=O)C1CCCN(c2cnccn2)C1 (stereo not drawn),2,1,11%,-0.2,18%,-14
C=CCOc1cccc(C2C(C(=O)c3ccco3)=C(O)C(=O)N2Cc2cccnc2)c1 (stereo not drawn),0,-28,7%,-5.0,7%[15.4 µM],0
CC1=C(C(=O)OCC2CCCO2)C(c2ccc(C)o2)C2=C(CC(c3ccc(F)cc3)CC2=O)N1 (stereo not drawn),-3,-10,-22%,1.6,2%[15.4 µM],1
CCC[N+](CC#Cc1ccccc1)(CCC)CC(=O)c1ccc(Cl)cc1,-2,5,9%,-7.6,-5%,-27
Cc1nc(SCC(=O)N2CCCC2=O)nc(C)c1C,-4,3,2%,-4.8,11%[15.4 µM],-21
O=[N+]([O-])c1ccc(SNc2ccccc2)c([N+](=O)[O-])c1,?,?,-16%,1.1,-3%,2
CCC(C)NC(=O)c1ccc(NC(=O)CC2SC(N3CCCC3)=NC2=O)cc1 (stereo not drawn),-16,9,-9%,2.5,-9%,-2
CCc1cc2cccc(C)c2nc1SCC(=O)NNC(=O)c1ccco1,-14,0,28%,-1.4,?,-12
COC(=O)Nc1ccc2c(c1)Nc1ccccc1CC2,-6,-10,-11%,8.4,-44%[inhibitor],-24
COc1ccccc1C1C(C#N)=C(N)N(c2cccnc2)C2=C1C(=O)CC(C)(C)C2 (stereo not drawn),4,-2,4%,-0.6,5%,-8
CC(C)(C)C(=O)NCCCc1ccccc1,10,12,9%,0.8,-7%,4
O=C(NCC(c1ccco1)N1CCc2ccccc21)c1ccc([N+](=O)[O-])cc1 (stereo not drawn),-20,?,?,2.1,-9%,6
CCCCC(=O)N=c1sc2cc([N+](=O)[O-])ccc2n1C,2,-1,-5%,2.9,15%,-2
O=C(NCc1ccc(OC(F)(F)F)cc1)C1CC(c2ccccc2[N+](=O)[O-])=NO1 (stereo not drawn),3,-4,3%,-0.7,nt,3
O=C(CCC(=O)Nc1nnc(C2CCCCC2)s1)NCc1ccc(F)cc1,-1,2,9%,-0.3,12%,-1
O=C(CC1C(=O)NCCN1Cc1c(F)cccc1Cl)NCCCn1cccn1 (stereo not drawn),4,5,5%,0.6,-1%,-7
Cc1cnc(NC(=O)C(C)N2C(=O)C3CC=CCC3C2=O)s1 (stereo not drawn),-3,3,6%,-1.4,11%,-6
CN(C)S(=O)(=O)c1cccc(-c2nn(-c3ccccc3)cc2/C=C2\SC(=S)N(CC(=O)O)C2=O)c1,-23,-15,?,-4.6,1%,-3
Cc1onc(-c2ccccc2Cl)c1C(=O)N1CCCCC1,-3,2,1%,-2.4,4%,-2
Cc1c(C(=O)c2ccc(Cl)c([N+](=O)[O-])c2)c2ccccn2c1CCC#N,-24,-25,5%,0.4,7%,-11
C#CCSc1nccc(-c2nn(-c3ccc(C)cc3)ccc2=O)n1,20,7,7%,-4.2,26%,-32
COc1ccccc1CNC(=O)CSc1ccsc1[N+](=O)[O-],-21,-4,9%,-2.9,?,-4
CN1CCN(C(=O)c2cc3c(c(-c4cccc(Br)c4)n2)[C@H](CCO)N(S(=O)C(C)(C)C)C3)CC1 (stereo partly drawn),0,-3,nt,-3.0,nt,-13
CC(C)(C)S(=O)(=O)N1C[C@@H]2CC/C=C\C/C=C\2[C@H]1CCO,5,2,5%,1.5,nt,nt
Fc1ccccc1-n1cc(-c2ccccc2)[nH]c1=S,-3,-3,3%,7.9,-3%[15.4 µM],-9
CN1C=CC(=CC=C2C=CC(=O)C=C2)C=C1,nt,-7,-12%,-6.8,-21%,-12
# Further structures.
SMILES,CtBP-E1A blk,Six1-Eya2 blk,gsp antag,D2 agonist,gsp agonist,D2 PAM
COc1ccccc1-n1c(SCC(=O)N2CCCC2)nnc1-c1ccccc1,-1,-24,8%,-2.5,-8%[15.4 µM],-4
CCc1nn(CC(=O)NCCCN2CCN(CC)CC2)c(=O)c2cc3occc3n12,0,-1,13%,0.3,45%,-6
CCC(C)NC(=O)C1CCN(S(=O)(=O)N2CCOCC2)CC1 (stereo not drawn),nt,1,9%,2.5,-29%,-5
CC(C)c1ccc(NC(=S)NNC(=O)C2CC2)cc1,7,-1,10%,-9.7,-11%,-7
CCOc1cc(/C=N/NC(=O)CN2CCCCC2)ccc1OCc1ccccc1,-7,-2,9%,-3.4,3%,-12
COCCn1c(N)c(Sc2ccc([N+](=O)[O-])cc2)c(=O)[nH]c1=O,7,15,5%,-3.1,7%[15.4 µM],0
CCCOc1ccc(C(=O)OCC(=O)NCCc2ccc(OCC)c(OCC)c2)cc1OC,3,1,0%,-2.6,-60%[inhibitor],3
CCNC(=O)C1CCCN(C(=O)c2ccccc2F)CC1 (stereo not drawn),9,3,nt,-3.0,nt,-2
CCOC(=O)c1c(C)c(C(=O)N2CCN(C(=O)c3ccco3)CC2)c(C)n1C,-8,-1,-8%,1.9,7%,-5
Cc1ccc(CCNC(=O)C2CCC(CNc3c(N4CCCC4)c(=O)c3=O)CC2)cc1 (stereo not drawn),-2,3,6%,2.1,20%,-7
CCOc1ccc(NC(=O)CSc2nc3cc(C(=O)NCC4CCCO4)ccc3c(=O)n2CC2CCCO2)cc1 (stereo not drawn),2,-2,nt,-0.6,22%,-3
CCN(CC)c1ccc(NC(=O)c2c(OC)cccc2OC)c(C)c1,-3,-8,?,-2.4,-29%,-2
CCCCc1c(O)nc(SCC(=O)N2CCCCC2)n(-c2ccccc2C)c1=O,-1,3,-28%,-1.2,-2%,10
O=C(Nc1nnc(SCC(=O)N2CCCCC2)s1)c1c(F)cccc1F,18,9,-5%,-2.0,51%[15.4 µM],-2
COc1cc2c(C#N)c(N3CCOCC3)nc(N)c2c(N)n1,-6,-5,-3%,-4.8,37%,-3

# A draw from above in order of count of non-hydrogen atoms, falling.
SMILES,CtBP-E1A blk,Six1-Eya2 blk,gsp antag,D2 agonist,gsp agonist,D2 PAM
CCCOc1ccc(C(=O)OCC(=O)NCCc2ccc(OCC)c(OCC)c2)cc1OC,3,1,0%,-2.6,-60%[inhibitor],3
COc1ccccc1-n1c(SCC(=O)N2CCCC2)nnc1-c1ccccc1,-1,-24,8%,-2.5,-8%[15.4 µM],-4
CCC(C)NC(=O)C1CCN(S(=O)(=O)N2CCOCC2)CC1 (stereo not drawn),nt,1,9%,2.5,-29%,-5
